# Compound activity from PubChem BioAssay.
# VDR inh = Inhibitors of the vitamin D receptor (VDR): qHTS. VDR-SRC2-3 peptide fluorescence polarization, 2 h. Potency, µM, for inactives: max response, negative = inhibition, most hits filed as inhibitors. 400,000 compounds, 0.93% hits. AID 504847, 2011; active = well fitted inhibition curve with a large enough effect; inconclusive = small, poorly fitted or top-dose-only effect, or another doubt; inactive = no such curve, though single readings can be large or run the other way; note: series mostly up to about 120 µM
# Target sequence (P11473 whole entry, looked up): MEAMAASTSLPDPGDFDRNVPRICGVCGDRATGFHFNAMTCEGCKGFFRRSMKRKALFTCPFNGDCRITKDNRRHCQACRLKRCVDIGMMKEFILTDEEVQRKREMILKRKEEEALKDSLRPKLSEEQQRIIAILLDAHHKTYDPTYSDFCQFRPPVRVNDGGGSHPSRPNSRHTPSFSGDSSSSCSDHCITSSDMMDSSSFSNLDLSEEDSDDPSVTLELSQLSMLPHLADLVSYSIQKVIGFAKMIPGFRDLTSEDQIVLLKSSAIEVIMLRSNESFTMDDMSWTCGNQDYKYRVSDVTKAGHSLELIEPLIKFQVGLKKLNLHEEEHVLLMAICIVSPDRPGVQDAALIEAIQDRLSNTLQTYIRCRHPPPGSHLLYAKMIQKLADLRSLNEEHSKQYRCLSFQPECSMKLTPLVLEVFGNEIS
#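 Two reagent solutions held at 4 deg C in the dark were dispensed, compounds pinned at 23 nl, and the mixture incubated 2 h at room temperature. Read-out: fluorescence polarization of VDR–SRC2-3 peptide binding.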
# * hit, by the source's call; ? = inconclusive; & = joins results of further samples. % is set by controls: 0 for no effect and ±100 for the full control effect; potency is the fitted concentration of half-maximal effect. Not all compounds are listed; count on the stated rates, not on these rows.
SMILES,VDR inh
O=[N+]([O-])c1cc([N+](=O)[O-])c2nonc2c1Nc1ccccc1O,-10%
COC(=O)CSc1nnc(-c2ccc3c(c2)OCO3)n1C,-5%
Cc1ccc2oc(-c3cccc(NC(=O)c4ccccn4)c3)nc2c1,0%
COc1ccc(C2=CC(=O)N(Nc3ccccc3)C2=O)cc1,?
COc1ccc(NC(=O)COc2ccc3c(c2)CCC3)cc1,12%
CCOC(=O)N1CCN(C(=O)C2CCN(S(=O)(=O)c3cc(OC)ccc3OC)CC2)CC1,-3%
COc1ccc(C(=O)n2nc(-c3ccccc3)nc2N)cc1OC,3%
O=C(C1CCN(S(=O)(=O)c2ccc(Cl)cc2)CC1)N1CCN(c2ccccn2)CC1,-15%
COc1cc(OC)c2c(-c3cccc(-c4ccoc4)c3)cc(=O)oc2c1,-5%
O=C(COC(=O)CCC(=O)c1cccs1)NC1CC1,-9%
O=C(NC1CC1)C1=C[C@H](c2csc3ccccc23)C[C@H](OCc2ccc(CO)cc2)O1,3%
Cc1cc(C)c(Cn2c(C)c(CNCCCc3ccccc3)c(C(=O)O)c2C)c(C)c1,15%
CC(=O)c1cc2c(cc1NC(=O)c1cccc(S(=O)(=O)N3CCN(C)CC3)c1)OCO2,6%
CC1CCN(C(=O)c2ccc3c(Cl)c4c(nc3c2)CCCC4)CC1,-14%
COc1ccc(-c2noc(-c3ccc(NCc4ccco4)c([N+](=O)[O-])c3)n2)cc1OC,7%
CCC(=O)Nc1nnc(S(=O)(=O)N2c3ccccc3CC2C)s1 (centres undefined),3%&1%
Cc1ccccc1NC(=O)Cn1c(=O)n(CCCCC(=O)NCc2ccccc2Cl)c(=O)c2ccccc21,-10%
CCCCN1/C(=C/c2ccc3ccccc3[n+]2CC)Sc2ccccc21,8%
CCCCn1c(N)c(N(CCOC)C(=O)c2ccc(-c3cccc(C(F)(F)F)c3)o2)c(=O)[nH]c1=O,-1%
CC(=O)N1N=C(c2ccncc2)OC12CCCC2,15%
CCC(Oc1ccccc1)C(=O)Nc1cc(Cl)ccc1-n1cncn1 (centres undefined),-17%
Cc1cccc(-c2noc(CNS(=O)(=O)c3ccccc3)n2)c1,-7%
COc1ccc(S(=O)(=O)Nc2ccc(Nc3ccccc3)cc2)cc1,9%
CC1CCC(NC(=O)COC(=O)CCC(=O)c2ccc(Cl)s2)CC1 (centres undefined),-14%
O=C(O)c1ccc(/C=N\Nc2ccc(S(=O)(=O)N3CCOCC3)cc2[N+](=O)[O-])cc1,-14%
# The list continues.
SMILES,VDR inh
COc1ccc(S(=O)(=O)Nc2ccc(C)cc2)cc1OC,-9%
COc1cccc(NC(=O)c2cnc[nH]2)c1,14%
CN(C(=O)c1ccc(S(=O)(=O)N2CCCCC2)cc1)C1CCS(=O)(=O)C1 (centres undefined),4%
COc1ccc(-c2nc3ncccn3c2Br)cc1,-10%
Cc1ccc(C)c(CNC(=O)c2ccc3c(c2)nc2n3CCC(C)C2)c1 (centres undefined),12%
C/C(=N/Nc1cc(-c2ccccc2)nc(-c2ccccc2)n1)c1ccc(O)cc1,-14%
Cc1cccc(NC2=NC(C)(C)N=C(N)N2)c1C,25µM*
C/C(CC(=O)Nc1cccnc1)=N\NC(=O)c1ccc([N+](=O)[O-])c(Cl)c1,1%
COc1ccc(NC(C)=O)cc1S(=O)(=O)NC(Cc1ccccc1)C(=O)NCc1ccccc1C (centres undefined),9%
O=C(/C=C\c1cn(-c2ccccc2)nc1-c1ccccc1)Nc1nccs1,1%
COCCNc1ncnc2ccc(-c3ccccc3C(F)(F)F)cc12,?
Cn1c(=O)[nH]c(=O)c2c1nc(Br)n2C/C=N/Nc1ccccc1,2%
COc1cccc(NC(=O)c2ccn(C)n2)c1,10%
Cc1c(Cl)cccc1NC(=S)NN,-10%
CN1CCN(C(=O)CC2C(=O)NCCN2Cc2ccc(-c3ccccc3)cc2)CC1 (centres undefined),-17%
CCN(CCO)c1cc(Cl)nc(SC)n1,-2%
O=C1CCCc2nc3c(cc21)C(O)Oc1ccccc1-3 (centres undefined),9%
O=C1COc2ccc(-c3cc(-c4ccc(F)cc4)c4c(n3)-c3ccccc3OC4)cc2N1,-12%
CCCCNC(=O)OCCNC(=O)Oc1cccc(C)c1,14%
COC(=O)CCC(=O)NNC(=O)c1ccc([N+](=O)[O-])cc1,-5%
CN(CC(=O)Nc1cccc2ccccc12)C(=O)c1cccc(S(=O)(=O)N(C)C)c1,10%
COc1ccc(N2CCN(C(=O)c3cnc(N4CCOCC4)c4ccccc34)CC2)cc1,10%
COc1cc(C)ccc1OCC(=O)OCC(=O)c1ccc[nH]1,-17%
NC(=O)c1nsc(C(=O)N(Cc2ccc(F)cc2)C(C(=O)NCC2CCCO2)c2ccc(F)cc2)c1N (centres undefined),-9%
COC(C(=O)N1CCC(n2nccc2NC(=O)C2CC2)CC1)c1ccccc1 (centres undefined),-10%
# The listing continues.
SMILES,VDR inh
CCSC1=NSC2=NC(=O)/C(=C\c3coc4ccccc4c3=O)C(=N)N12,79µM*
c1csc(-c2nc(NCCCN3CCOCC3)c3ccccc3n2)c1,18%
CC(Sc1nc2ccc(C(=O)c3ccccc3)cc2[nH]1)C(=O)O (centres undefined),2%
COC1CCN(C(=O)c2ccc(OC3CCN(Cc4ccccn4)CC3)cc2)CC1,6%
O=c1c([N+](=O)[O-])cc(C(F)(F)F)cn1Cc1cccc(Cl)c1,-6%
O=C1NC(=S)N/C1=C/c1ccc2ccccc2c1,-8%
C=CCn1c(-c2oc3nc(-c4ccccc4)cc(-c4ccccc4)c3c2N)n[nH]c1=S,-8%
O=C(CCCl)N1c2ccccc2C=Cc2ccccc21,4%
O=c1c2ccccc2c(C=Nc2cccc(O)c2)c(O)n1-c1ccc2c(c1)OCO2,10%
Cc1ccc(NC(=S)N(CCCN2CCOCC2)Cc2ccccn2)cc1Cl,-14%
Cc1ccc(C(=O)NCc2ccc(N3CCN(C(=O)OC(C)(C)C)CC3)cc2)cc1,-10%
CC1CCN(c2ccccc2NC(=O)c2ccc(Br)o2)CC1,-25%
C=CC(C)(O)CCC=C(C)C (centres undefined),5%&0%
O=C(Nc1nnc(C2CC2)s1)c1ccc(S(=O)(=O)c2ccccc2)cc1,5%
O=C(NCC#CCOCc1ccccc1)c1ccccc1,-11%
CCC12OC(=N)C(C#N)(C1C)C(C#N)(C#N)C(c1ccccc1)O2 (centres undefined),2%
COc1ccc(/C(N)=N/OC(=O)Cc2cccs2)cc1OC,0%
Cc1ccc(-c2nnc(Nc3cccc(O)c3)c3ccccc23)cc1S(=O)(=O)NCC1CCCO1 (centres undefined),-10%
Cc1ccc(S(=O)(=O)N2CCC(=O)N([C@H](COCc3ccc(Cl)cc3)Cc3ccccc3)CC2)cc1,0%
CCCCCCn1c(=O)[nH]c2c(c1=O)CCC2,-1%
CC1=C(C#N)C2C(/C1=N/O)C2(C)C (centres undefined),2%
COc1ccc(N=C2SCC(c3ccccc3)=NN2C)cc1,-12%
N#CCCn1cc(C(=O)O)c(-c2cc3ccccc3o2)n1,-3%
CCc1ccccc1NC(=O)NCc1cccnc1,0%
CC(=O)Nc1ccc(N2C(=O)CC(N3CCN(Cc4ccc5c(c4)OCO5)CC3)C2=O)cc1 (centres undefined),3%
# Continuation.
SMILES,VDR inh
NC(=S)NN=C1CCCCCCCCCC1,?
CCOc1ccc(C2OC34CCCCC3C(C#N)(C#N)C2(C#N)C(=N)O4)cc1OC (centres undefined),-10%
O=C(Nc1ccccc1)c1ccccc1C(=O)N1CCCCC1,?
Cc1ccc(C(=O)Nc2ccc3oc(-c4ccncc4)nc3c2)c(Cl)c1,-16%
CCCCn1nnnc1SCC(=O)N1CCN(C(=O)c2ccco2)CC1,-8%
CC/C=C\C[C@H](O)/C=C/C=C\C/C=C\C/C=C\CCCC(=O)O,8%
O=C(NCc1cc([N+](=O)[O-])ccc1O)c1cccnc1Sc1ccccc1,7%
O=C(Cc1csc(N2CCOCC2)n1)N/N=C/c1cccc(O)c1,8%
Cc1ccc2oc(=O)c3cnn(CC(=O)N(CCC(C)C)Cc4ccco4)c3c2c1,-8%
CC(=O)Nc1c(N)c2ccccc2oc1=O,-6%
CCCc1nnc(SCC(=O)N2CCCCC2C)n1CCOC (centres undefined),-16%
CC1CCC2(CC1)NC(=O)N(CC(=O)Nc1ccc3[nH]c(=O)[nH]c3c1)C2=O (centres undefined),15%
Cc1ccc2c(CNC3CCC(C)CC3)c(C(=O)O)n(Cc3cccc(F)c3)c2c1 (centres undefined),-7%
COc1cc(/C=C2\C(=N)N3N=C(S(C)(=O)=O)SC3=NC2=O)ccc1OC(=O)c1cccs1,-2%
C/C(=N\Nc1ccc([N+](=O)[O-])cc1)c1ccc(N2CCOCC2)cc1,-6%
CC(=O)Nc1c(-c2cc(=O)oc3cc(C)ccc23)oc2ccccc12,1%
CCOC(=O)C1CCCN(C(=O)c2ccc(OC)c([N+](=O)[O-])c2)C1 (centres undefined),?
CCn1cc(C(=O)OCC(=O)c2cc(C)n(-c3cccc(C(F)(F)F)c3)c2C)c(=O)c2ccc(C)nc21,-9%
CCN(CC)Cc1nc2sc(C)c(C)c2c(=O)[nH]1,12%
CCOC(=O)C1CCN(C2=C(NS(=O)(=O)c3ccc(Cl)cc3)C(=O)c3ccccc3C2=O)CC1,-15%
COc1ccc(/C=C/C(=O)OCn2c(SC)nnc(C)c2=O)cc1OC,-10%
Fc1ccccc1-c1nnc2ccc3ccccc3n12,-10%
COC(=O)c1[nH]c2cccc(OC)c2c1NC(=O)CN1CCN(c2cccc(OC)c2)C(C)C1 (centres undefined),-10%
COc1cccc(CNC(=O)CCS(=O)(=O)c2ccc3c(c2)NC(=O)C(C)S3)c1 (centres undefined),0%
C#CCNC(=O)C1=C[C@@H](c2coc3ccccc3c2=O)C[C@@H](OCCCCO)O1,-18%
# (more compounds)
SMILES,VDR inh
Cc1nc(Cl)c(Cl)n1CCOc1ccccc1,5%
NC(=O)c1cnn2c1NC(c1ccc(F)cc1)CC2C(F)(F)F (centres undefined),8%
O=C(Cn1cc(C(F)(F)F)ccc1=O)N/N=C/c1ccccc1O,?
Cc1ccc(C(=O)Nc2cc(C(F)(F)F)ccc2-n2cncn2)o1,-3%
Brc1cccc(OCCN2CCOCC2)c1,-10%
CN(c1ccc(OCC(=O)OCC(=O)Nc2ccc(Br)cc2)cc1)S(=O)(=O)c1cccs1,14%
Clc1ncc(CN2CCN(Cc3ccccc3)CC2)s1,15%
CC1CCCN(c2ncnc3c2nc2n3CCCCC2)C1 (centres undefined),1%
CCCNC(=O)Cc1cc(=O)[nH]c(=O)[nH]1,-14%
Cc1cccc(C)c1NC(=O)C1CC(=O)N(C(C)C)C1 (centres undefined),-6%
COc1ccc(-n2c(=O)c(-c3cccc(C#N)c3)nc3cnc(N4CCNCC4)nc32)cc1,-17%
O=C(c1ccc(Cl)cc1)c1cnc(-c2ccc(Cl)cc2)s1,-1%
CN(C(=O)CSc1nnc(-c2ccco2)n1C)C1CCCCC1,-14%
CCOC(=O)N1CCC(NC(=O)CCc2c(C)nc3c(c(C)nn3-c3ccccc3)c2C)CC1,?
O=C(NC(=S)Nc1ccccc1N1CCCC1)c1cccc(F)c1,-1%
CC(=O)c1ccc(NC(=O)COC(=O)/C=C/c2cccs2)cc1,0%
CN1C(=O)N(CC(=O)N2CCN(S(=O)(=O)c3ccc(Cl)s3)CC2)C(=O)C12CCCCC2,-21%
COc1cc2c(cc1N)-c1ccc(N)cc1C2,-2%
O=C(CSc1ccc(-c2cccc([N+](=O)[O-])c2)nn1)N1CCCC1,-4%
OC[C@@H]1O[C@@H](n2cnc3c(NC4CCCC4)ncnc32)[C@H](O)[C@H]1O,8%
CC1(C(=O)O)CCC(C(=O)Nc2ccc3ccccc3c2)C1(C)C (centres undefined),-3%
CSCC[C@H](Nc1ncnc2sc(C)c(C)c12)C(=O)O,-8%
CC1(C)Cc2ccccc2C(CSc2ccccc2C(=O)O)=N1,-5%
COc1cccc(N2CCN(CC(=O)Nc3ccccc3C(=O)NCCc3ccccc3)CC2)c1,1%
CCOC(=O)c1cnn(-c2ncnc3sc(CC)cc23)c1N,13%
CCN(Cc1ccc2c(c1)OCCO2)C(=O)CSc1nc(C)nc2sc(C)c(C)c12,3%
CSc1nc(C2CC2)cc(-c2cccs2)c1C#N,1%
